# Assay outcomes (PubChem BioAssay)
# FPR binder = ligands of human FPR, also counter-screen for FPRL1 ligands; hit rate 0.74% among 24,000; FPR-expressing cells, fluorescent ligand binding, flow cytometry; P21462; inhibition, %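 (tested at 6.7 µM)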;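 also: 0% = buffer wells and 100% = receptor blocker peptide wells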
# Target sequence (P21462 whole entry, looked up): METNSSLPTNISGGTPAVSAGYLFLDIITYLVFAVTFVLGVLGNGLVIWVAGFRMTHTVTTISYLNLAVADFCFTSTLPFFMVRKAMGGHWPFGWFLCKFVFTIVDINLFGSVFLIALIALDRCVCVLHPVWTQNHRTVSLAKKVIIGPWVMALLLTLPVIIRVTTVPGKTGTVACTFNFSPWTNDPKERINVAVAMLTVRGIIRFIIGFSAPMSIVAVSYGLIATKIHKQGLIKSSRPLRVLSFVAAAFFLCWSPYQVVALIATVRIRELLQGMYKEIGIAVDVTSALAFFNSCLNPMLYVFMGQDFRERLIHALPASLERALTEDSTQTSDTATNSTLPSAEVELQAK
# VCAM-1 down = suppression of endothelial VCAM-1 upregulation – cell-based, plate reader, pooled HUVEC, TNFa stimulus (AID 454) | HUVEC TNFa-induced VCAM-1 surface immunofluorescence, plate reader; numbers were filed only for top-ranked candidate wells | inhibition, % at 5 µM | hit rate 0.2% among 10,000;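 active = compound among top-ranked inhibitors of TNF-induced VCAM-1 adhesion protein staining, with the hit upheld by image or statistical review; inactive = the rest, including hits rejected on review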;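 also: 0% = TNFa with vehicle and 100% = cells without TNFa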
# VCAM-1 up imaging = enhancers of VCAM-1 display on endothelial cells, imaging, high-content imaging, pooled HUVEC, TNFa stimulus (AID 457) | Pooled HUVEC, TNFa-induced VCAM-1 immunofluorescence imaging; hits of this screen are not shown here | calls only | hit rate 0.2% among 10,000;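 active = a top-ranked rise in VCAM-1 staining upheld on image or statistical review; inactive = the rest, including candidates rejected on review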;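 also: compounds tested at 5 µM in the well; cells exposed to compound for 24 hours before fixing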
# VCAM-1 down imaging = inhibitors of TNFa-induced VCAM-1 surface display, imaging, high-content imaging, pooled HUVEC, TNFa stimulus (AID 456); HUVEC TNFa-induced VCAM-1 surface expression, immunofluorescence imaging; numbers were filed only for top-ranked candidate wells; inhibition, % at 5 µM, or IC50 in µM where a hit was titrated; hit rate 0.2% among 10,000;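 active = top tenth filtered wells with inhibition above zero that passed visual or statistical confirmation; inactive = the rest, including hits rejected on review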;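 also: 0% = stimulated vehicle wells and 100% = unstimulated cells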
# FPRL1 binder = ligands of human FPRL1, also counter-screen for FPR ligands; P25090; FPRL1-expressing cells, fluorescent ligand binding inhibition, flow cytometry; inhibition, %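 (tested at 6.7 µM)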; hit rate 0.3% among 24,000; AID 441;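 also: 0% = buffer alone and 100% = receptor blocker peptide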
# Target sequence (P25090 whole entry, looked up): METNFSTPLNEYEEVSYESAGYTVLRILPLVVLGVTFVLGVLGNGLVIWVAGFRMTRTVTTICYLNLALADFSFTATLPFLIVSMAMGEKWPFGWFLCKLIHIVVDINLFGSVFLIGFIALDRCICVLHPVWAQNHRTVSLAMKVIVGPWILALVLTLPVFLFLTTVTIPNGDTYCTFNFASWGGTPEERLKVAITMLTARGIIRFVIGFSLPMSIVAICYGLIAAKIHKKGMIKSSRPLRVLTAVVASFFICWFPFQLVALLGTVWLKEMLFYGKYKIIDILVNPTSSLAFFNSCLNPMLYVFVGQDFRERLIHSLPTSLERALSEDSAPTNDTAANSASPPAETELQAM
# Starred values were filed as active, the others as inactive; i = inactive; / = no result given.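 The calls were made as follows, unless noted: active = mean above 30%; inconclusive = self-fluorescent; inactive = the rest.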 This is a subset; the hit share may differ from the screen's.
SMILES,FPR binder,VCAM-1 down,VCAM-1 up imaging,VCAM-1 down imaging,FPRL1 binder
CCCOc1ccc(C2C(=O)N(C3CCCCC3)CC(=O)N2CCC)cc1OC (configuration not stated),24,/,/,/,6
CCCNC(=O)CCNC(=O)c1ccc(C(C)(C)C)cc1,-5,/,/,/,-3
O=C(Cc1cccs1)N(Cc1ccco1)C1(C(=O)NC2CCCC2)CCCCC1,0,/,/,/,1
COc1ccc(C(C)(C)C)cc1NC(=O)C1C2C=CC(C2)C1C(=O)O (configuration not stated),9,/,/,/,-8
COC(=O)CSc1cc(SCC(=O)OC)c(C#N)c(SCC(=O)OC)c1,7,/,/,/,3
COc1ccccc1C(=O)Nc1ccc(S(=O)(=O)N2CCCC2)cc1,-5,i,i,i,1
COc1ccc(C(=O)Nc2cc(Cl)cc(Cl)c2)c(OC)n1,1,/,/,/,1
Oc1ccc(Nc2nc(-c3ccc(O)cc3)cs2)cc1,17,106*,i,12µM*,-4
CC1Cc2ccccc2N1S(=O)(=O)c1ccc2c(c1)n(C)c(=O)c(=O)n2C (configuration not stated),9,i,i,i,0
Cc1ccccc1NC(=O)c1ccccc1,16,i,i,i,5
COc1cccc(C2=CC(c3cc(OC)ccc3OC)n3nnnc3N2)c1 (configuration not stated),3,/,/,/,2
Cc1cc(C(=O)NCc2cccnc2)no1,-6,i,i,i,-1
CCOC(=O)C1CCCN(C(=O)c2cc3c(=O)n4cccc(C)c4nc3n2C)C1 (configuration not stated),0,i,i,i,1
COc1ccc(-n2c(=O)c3ccccc3n(CC(=O)NC3CCCC3)c2=O)cc1,-4,/,/,/,22
O=c1c(-c2ccc3c(c2)OCCO3)c(C(F)(F)F)oc2cc(O)cc(O)c12,-7,/,/,/,-9
O=C(CSc1nnc2scc(-c3ccccc3)n12)N1CCN(Cc2ccccc2)CC1,6,i,i,i,-6
Nc1ccccc1Nc1ccccc1,-11,/,/,/,-2
Cc1ccccc1NC(=O)c1c(F)c(F)c(F)c(F)c1F,-2,i,i,i,-8
CCCCC(=O)NC1(C(F)(F)F)C(=O)Nc2c1c(=O)[nH]c(=O)n2Cc1ccco1 (configuration not stated),-1,/,/,/,8
CCOC(=O)N1CCC(N2C(=O)c3ccc(C(=O)NC4CCCCCC4)cc3C2=O)CC1,-11,/,/,/,-1
O=C(CSc1oc(-c2ccc(F)cc2)nc1S(=O)(=O)c1ccccc1)NCC1CCCO1 (configuration not stated),2,/,/,/,-4
CCOC(=O)c1ccc(CNC(=O)C2CCCCC2C(=O)OCC(F)(F)F)o1 (configuration not stated),0,/,/,/,-3
O=C(Nc1nc(-c2cccnc2)cs1)c1ccc(S(=O)(=O)N2CCOCC2)cc1,-2,/,/,/,-3
CNC(=O)CN1C(=O)c2ccccc2S1(=O)=O,5,/,/,/,1
COC(=O)c1cc2sccc2n1Cc1nc(-c2ccc(OC)cc2)oc1C,-8,/,/,/,-19

# VCAM-1 down imaging: what is marked active above.
Structure | VCAM-1 down | VCAM-1 up imaging | VCAM-1 down imaging
Oc1ccc(Nc2nc(-c3ccc(O)cc3)cs2)cc1 | 106* | i | 12µM*

# The main list resumes, repeating the two entries before the break.
SMILES,FPR binder,VCAM-1 down,VCAM-1 up imaging,VCAM-1 down imaging,FPRL1 binder
CNC(=O)CN1C(=O)c2ccccc2S1(=O)=O,5,/,/,/,1
COC(=O)c1cc2sccc2n1Cc1nc(-c2ccc(OC)cc2)oc1C,-8,/,/,/,-19
C=CCn1c(SCc2cc(=O)n3ccsc3n2)nnc1C1CCCCC1,0,i,i,i,1
O=C(O)CCCC(=O)Nc1nc(-c2ccc(F)cc2)cs1,-11,i,i,i,4
CN(C)S(=O)(=O)N1CCN(C(=O)N(c2ccccc2)c2ccccc2)CC1,1,i,i,i,6
COc1ccc2c(c1)CCc1c(C(=O)N3CCCC3)noc1-2,6,/,/,/,-11
COCc1c(C(N)=O)nnn1-c1nonc1N,0,/,/,/,3
Cc1cc(C)n(-c2nc3ccccc3c(=O)n2OCCOc2ccccc2)n1,-7,i,i,i,10
COCCN1Cc2cccc(C(=O)N3CCN(c4cc(C)ccc4C)CC3)c2C1=O,1,/,/,/,-7
O=c1c(Oc2ccccc2Br)c(C(F)(F)F)oc2c(CN3CCCC3)c(O)ccc12,-23,/,/,/,-8
CCOCCn1c(CN2CCN(CC)CC2)nc2c1c(=O)n(C)c(=O)n2C,-12,i,i,i,4
COc1cccc(-c2nc(CS(=O)(=O)CC(=O)N3CCN(C4CCCCC4)CC3)c(C)o2)c1,-10,/,/,/,-8
O=C(Nc1ccc2nc(-c3cccs3)[nH]c2c1)c1ccco1,-1,i,i,i,10
CSc1cccc(NS(=O)(=O)c2ccc3c(c2)oc(=O)n3C)c1,4,/,/,/,-6
O=[n+]1c2c(n([O-])c3c1CCCC3)CCCC2,2,i,i,i,-1
COc1ccc(-n2nnnc2-c2cccc(OC)c2)cc1,7,i,i,i,-2
CC(Sc1n[nH]c(=O)[nH]c1=O)C(=O)OCc1ccccc1 (configuration not stated),10,i,i,i,-2
Cc1ccc(S(=O)(=O)NCc2csc(C)n2)c(C)c1,1,/,/,/,4
CN(C)c1ccc(-c2noc(-c3ccccc3O)n2)cc1,1,/,/,/,-6
CCN1CCN(CCCNC(=O)c2cc3cc4ccc(OC)cc4nc3o2)CC1,2,/,/,/,-2
CCCCCCn1c(CN2CCCCC2C)nc2c1c(=O)n(C)c(=O)n2C (configuration not stated),-8,/,/,/,-6
CCOc1ccc(S(=O)(=O)Nc2cccc(Cl)c2)cc1,2,i,i,i,-8
CC(C)OC(=O)C1C2C=CC3(CN(C(C)c4ccc(Br)cc4)C(=O)C13)O2 (configuration not stated),-1,/,/,/,0
CCCCOC(=O)CCc1c(C)[nH]c(=O)c(C#N)c1C,6,/,/,/,3
CC(C)Cc1cc(C(=O)Nc2c(F)cc(F)cc2Br)no1,3,i,i,i,2
C=CCOC(=O)c1sc(N2C(=O)c3oc4ccccc4c(=O)c3C2c2ccco2)nc1C (configuration not stated),0,/,/,/,2
CCOc1ccc(-n2c(Cc3cc(=O)[nH]c(=O)[nH]3)nnc2SCC(=O)OC)cc1,-1,/,/,/,3
# Other entries
SMILES,FPR binder,VCAM-1 down,VCAM-1 up imaging,VCAM-1 down imaging,FPRL1 binder
C[C@]12CC[C@@H]3c4ccc(O)cc4CC[C@H]3[C@@H]1CC[C@@H]2OC(=O)CCC(=O)O,1,i,i,i,-5
CCCCC(=O)O[C@H]1CC[C@H]2[C@@H]3CCc4cc(O)ccc4[C@H]3CC[C@]12C,-1,i,i,i,-7
COc1ccc(C2CC(=O)C3=C(C2)Nc2ccccc2N(C(=O)C2CC2)C3c2cccnc2)cc1OC (configuration not stated),2,i,i,i,8
CCOc1cc2[nH]c(=S)n(CCCOC)c(=O)c2cc1OCC,1,/,/,/,1
C=CCn1cc(C(=O)NCCCOC)c(=O)c2cc(S(=O)(=O)N3CCC(C)CC3)ccc21,-3,/,/,/,-4
O=C(CN1CCN(Cc2ccc(F)cc2)C1=O)NCc1cccs1,1,/,/,/,1
Cc1ccc(Nc2nnns2)cc1C,1,i,i,i,2
Cc1ccccc1-c1nc(CN2CCC(C(=O)NCc3cccnc3)CC2)c(C)o1,-3,i,i,i,-3
Cc1c(C(=O)NCc2ccccc2)oc2c1C(=O)CCC2,-1,i,i,i,1
CC1(C)OC(=O)C(=CNC(Cc2c[nH]c3ccccc23)C(=O)O)C(=O)O1 (configuration not stated),-6,/,/,/,-5
C=CCn1c(=N)n(CC(=O)OCC)c2ccccc21,1,/,/,/,0
CCOc1ccc(-c2cc(C(=O)N3CCN(c4ccccn4)CC3)c3ccccc3n2)cc1,-21,73,i,i,-3
Nn1cnn(Cc2ccccc2)c1=S,6,/,/,/,-3
Cc1cc(Nc2cc(C(=O)O)ccc2C)n2ncnc2n1,-6,/,/,/,2
COc1ccc(C(=O)NC(C)c2nc3ccccc3n2C)cc1OC (configuration not stated),-9,/,/,/,-4
COc1ccc(-n2c(Cc3cccn3C)nnc2SCC(=O)Nc2ccc(C)cc2)cc1,24,/,/,/,4
Cc1ccc(N(CC(=O)NC2CCC(C)CC2)S(=O)(=O)c2cccnc2)cc1 (configuration not stated),7,/,/,/,-6
Cc1cc(S(=O)(=O)N2CCCC2)c(C)s1,-2,/,/,/,5
Cc1nc2cc(NC(=O)N3CC4(C)CC3CC(C)(C)C4)ccc2n1C (configuration not stated),0,i,i,i,4
Cc1ccc(-c2nc(CSCC(=O)N3CCCC3)c(C)o2)cc1,-1,/,/,/,-4
Cc1cc(NC(=O)CSc2nnc(COc3ccccc3)o2)no1,-2,/,/,/,8
CCCc1cc(=O)oc2c(C)c3occ(C)c3cc12,-4,i,i,i,2
Cc1n[nH]c(C)c1S(=O)(=O)N1CCCC(C(=O)NCC2COc3ccccc3O2)C1 (configuration not stated),3,/,/,/,1
Cc1nc2sc(C(c3ccco3)N3CCN(c4cccc(Cl)c4)CC3)c(O)n2n1 (configuration not stated),-6,/,/,/,-5
CCOC(=O)Cc1cc(=O)n2[nH]c(C)c(-c3ccc(Cl)cc3)c2n1,54*,/,/,/,1

# Entries of single compounds as entered above:
# `C=CCn1c(SCc2cc(=O)n3ccsc3n2)nnc1C1CCCCC1` is listed as FPR binder = 0; VCAM-1 down = i; VCAM-1 up imaging = i; VCAM-1 down imaging = i; FPRL1 binder = 1
# `O=C(Nc1nc(-c2cccnc2)cs1)c1ccc(S(=O)(=O)N2CCOCC2)cc1` is listed as FPR binder = -2; VCAM-1 down = /; VCAM-1 up imaging = /; VCAM-1 down imaging = /; FPRL1 binder = -3
# `Cc1nc2cc(NC(=O)N3CC4(C)CC3CC(C)(C)C4)ccc2n1C` (configuration not stated) is listed as FPR binder = 0; VCAM-1 down = i; VCAM-1 up imaging = i; VCAM-1 down imaging = i; FPRL1 binder = 4

# Going on with the list.
SMILES,FPR binder,VCAM-1 down,VCAM-1 up imaging,VCAM-1 down imaging,FPRL1 binder
O=C(c1ccc2c(c1)OCO2)N1CCNc2ccccc2C1,1,i,i,i,0
CCCC(=O)N(Cc1cc2ccccc2[nH]c1=O)c1ccccc1OC,1,i,i,i,-4
CCn1ncc(C(=O)Nc2ccc(S(=O)(=O)N3CCCC3)cc2)c1C,0,/,/,/,3
O=C(CC1SC(=Nc2ccccc2)N(CCCO)C1=O)Nc1ccc(Cl)cc1 (configuration not stated),-2,/,/,/,2
COc1cc(C2C(C(=O)c3ccco3)=C(O)C(=O)N2c2cc(C)on2)cc(Br)c1O (configuration not stated),39*,/,/,/,31*
COc1ccc(C2=CSC3=NCCN23)cc1F,-2,/,/,/,-2
O=C(CCCNS(=O)(=O)c1cccc2nsnc12)NCc1ccccc1,-7,/,/,/,-2
COC(=O)c1ccc(NC(=O)C2CC(=O)N(c3cc(C)ccc3C)C2)cc1 (configuration not stated),-9,i,i,i,-3
O=C(Cc1nn[nH]n1)NCCC1=CCCCC1,-4,i,i,i,3
O=C(Cn1nnc2ccccc21)C1CC1,-2,/,/,/,-1
Cn1c(C(=O)NCCCN2CCN(c3cccc(Cl)c3)CC2)cc2c(=O)n(C)c3ccccc3c21,-6,/,/,/,14
Cc1cccc(NC(=O)CS(=O)(=O)c2cn(C)c3ccccc23)c1,0,i,i,i,-2
O=C(O)C1CCCCC1C(=O)Nc1ccccn1 (configuration not stated),-4,i,i,i,-1
COc1ccc(NC(=O)C2CC(c3cc(OC)c(OC)c(OC)c3)=NO2)cc1OC (configuration not stated),1,/,/,/,3
CCOc1nc(OCC)nc(N2CCC(C)CC2)n1,-1,i,i,i,3
Cn1cccc1Cc1nnc(SCC(=O)NC2CCCC2)n1CCc1ccccc1,4,/,/,/,1
CN(C1CCCCC1)S(=O)(=O)c1ccc2c(c1)c(=O)c(C(=O)NCCCN1CCCC1)cn2C,0,/,/,/,2
c1cc(C2CCCCC2)ccc1Oc1nc(N2CCOCC2)nc(N2CCOCC2)n1,-6,/,/,/,-1
CC1CC(C)CN(C(=O)C(NS(=O)(=O)c2ccc3c(c2)oc(=O)n3C)C(C)C)C1 (configuration not stated),-1,/,/,/,6
CSc1nc2ccccc2n1CC(=O)Nc1ccc(C)c(C)c1,-1,/,/,/,-11
C=CCn1cc(C(=O)NCCCOCC)c(=O)c2cc(S(=O)(=O)N(CC)CC)ccc21,-5,/,/,/,2
COc1ccc2cc3cc(C(=O)NCCN4CCN(Cc5ccccc5)CC4)oc3nc2c1,-4,/,/,/,-2
CCS(=O)(=O)N1CCC(C(=O)NCc2ccc(F)cc2)CC1,-5,/,/,/,-11
Cc1c(NC(=O)C2CCCN(S(=O)(=O)c3cnc[nH]3)C2)c(=O)n(-c2ccccc2)n1C (configuration not stated),2,/,/,/,-6
